Anaer choline gr: growth inhibitors of anaerobic choline-fed gram-negatives, minimal medium, absorbance. Gram-negative bacterium anaerobic choline minimal medium; active compounds read low; many inactives read as strong as hits in the columns shown. calls only. actives 0.2% (n = 55,000);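 active = growth z-score on choline under -2 at 7 or 20 h with little or no fall on glycerol, limits in tiers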;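 also: stock transfer was 300 nL into about 50 µL; the organism is E. coli; final concentration not given here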
Anaer choline gr early: second read-out of Anaer choline gr, no call of its own (marks repeat the call); z-score; measured here: choline growth z-score, timepoint 1;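 score of optical density at 7 h as mean of two plates; lower means less growth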
* hit, by the source's call; i = inactive; & = joins results of further samples. The list is partial; rates above refer to the full screens.

structure,Anaer choline gr,Anaer choline gr early
O=C(CCn1cnc2cc(-c3noc(C4CCC4)n3)ccc21)N1CCCC1,i,0.19
CCOc1cccc(CN2C(=O)c3ccccc3CC2(C)C(=O)NCc2ccc(Cl)cc2)c1 (configuration not stated),i,1.2
CC(C)n1cnc2nc(CSc3ccc(NC(=O)c4cccc(Br)c4)cc3)cc(=O)n21,i,-0.17
Cn1nc(C(=O)NCCCN2CCC(N3CCCCC3)CC2)c2c1-c1ccsc1CC2,i,-0.93
O=C(CN1C(=O)CCCc2ccccc21)NCCN1CCN(c2cccc(Cl)c2)CC1,i,0.43
Cn1c(=O)c2sccc2n2c(CCC(=O)N3CCN(c4ccccn4)CC3)nnc12,i,-0.02
CC(=O)N1CCC(NC(=O)NC2CCCCC2)C1 (configuration not stated),i,-0.14
Cc1ccc(-c2nc(CN3CCCC(C(=O)Nc4ccc(C)cc4O)C3)no2)cc1 (configuration not stated),i,-0.6
CCC(C)n1[nH]c(=O)c2c(C)cc(C)nc21 (configuration not stated),i,-0.28
O=C(CCCn1nc(-c2ccccc2)c2cc(Cl)ccc21)Nc1ccccc1F,i,3.1
COc1ccc(NS(=O)(=O)c2ccc3c(c2)N(C(C)=O)CCCS3)c(OC)c1,i,0.56
COc1ccc(OC)c(NC(=O)c2nc(-n3cnnc3)ccc2Br)c1,i,-1.6
COC(=O)c1ccccc1NC(=O)c1ncoc1-c1ccc(OC)cc1,i,0.46
O=C(c1ccc(F)cc1)N1CCc2cc(CNS(=O)(=O)c3ccccc3Cl)ccc21,i,-1.6
O=C(NCCC1=CCCCC1)c1ccc(-c2cc(N3CCCC3)ncn2)cc1,i,0.65
Fc1ccc(-c2ccc(SCc3nc(-c4ccc(F)cc4)no3)nn2)cc1,i,0.82
CC1CCCCN1CCNC(=O)c1ccc(Cn2c(SCc3ccccc3)nc3cccnc32)cc1 (configuration not stated),i,1.2
O=c1c2c(nc3nc(CNc4ccccc4F)[nH]n13)CCC2,i,-1.4
CCOc1ccc(CNC(=O)CCc2nnc3c4cc(-c5ccccc5)nn4ccn23)cc1,i,3.2
Cc1ccc(NC(=O)N2CCN(c3nnc(C)c4c(C)n(-c5ccccc5)nc34)CC2)cc1Cl,i,-1.5

3 entries from above, ordered by their value in Anaer choline gr early, largest number first:
| Compound | Anaer choline gr early |
| --- | --- |
| CCOc1ccc(CNC(=O)CCc2nnc3c4cc(-c5ccccc5)nn4ccn23)cc1 | 3.2 |
| O=C(CCn1cnc2cc(-c3noc(C4CCC4)n3)ccc21)N1CCCC1 | 0.19 |
| Cc1ccc(NC(=O)N2CCN(c3nnc(C)c4c(C)n(-c5ccccc5)nc34)CC2)cc1Cl | -1.5 |

A second format for 2 compounds above:
CCOc1ccc(CNC(=O)CCc2nnc3c4cc(-c5ccccc5)nn4ccn23)cc1
  Anaer choline gr: i
  Anaer choline gr early: 3.2

Fc1ccc(-c2ccc(SCc3nc(-c4ccc(F)cc4)no3)nn2)cc1
  Anaer choline gr: i
  Anaer choline gr early: 0.82

Later entries:
structure,Anaer choline gr,Anaer choline gr early
CC1=Nc2ccccc2N=C(NC(=O)CSc2nnc(C)s2)C1c1ccccc1 (configuration not stated),i,0.1
CC(C)CN(CC(C)C)C(=O)c1cc(NC(=O)c2ccc(Cl)cc2)cnc1N1CCNCC1,i,-1.7
Cc1ccc(C(=O)NCC2CCCO2)cc1NC(=O)c1nsc2ccccc12 (configuration not stated),i,-0.18
CCCCC/C=C/C=C1/C=CC(=O)[C@@H]1CCCCCCC(=O)O,i,0.01
Cn1cc(CN2CCC(C(=O)N3CCN(c4ccccn4)CC3)CC2)c2cc(Cl)ccc21,i,-1.8
CCCCN1CCN(C(=O)C2(c3ccc(NS(C)(=O)=O)cc3)CCCCC2)CC1,i,-0.15
CCN(Cc1ccccc1)c1ccc(NC(=O)c2ccc(C)cc2)cc1C(=O)O,i,0.74
O=C(Nc1ccc2nc(N3CCC(N4CCCCC4)CC3)cc(C(=O)O)c2c1)c1cccc(Cl)c1,i,0.31
Cc1cc(=O)[nH]c(-n2nc(C)cc2NC(=O)c2ccc(C)c(C)c2)n1,i,-0.15
CCOC(=O)Cc1csc(NC(=O)C2CCCN(c3nc4cccnc4s3)C2)n1 (configuration not stated),i,-0.08
COc1cc(/C=C/c2ccc(OC)cc2OC)cc(OC)c1,i,0.85&-0.35
O=C(O)CCc1ccc(-c2ccc(F)cc2)n1-c1cc(Cl)ccc1O,i,-0.22
COC(=O)c1ccccc1NC(=O)CSc1n[nH]c(-c2ccc(OC)cc2)n1,i,0.62
Cc1cc(C)cc(N2C(=O)c3cc4ccsc4n3CC2(C)C(=O)NC2CCCC2)c1 (configuration not stated),i,0.83
Cc1nc2c(C)cccn2c(=O)c1NC(=O)CCC1CCCCC1,i,0.24
COc1ccc(-n2c(SCC(=O)c3c(C)[nH]c4ccccc34)nc3cc(C(=O)NC(C)C)ccc3c2=O)cc1,i,0.41
CC(=O)N1CCOc2cc(S(=O)(=O)NC3COc4ccccc4C3)c(C)cc21 (configuration not stated),i,0.33
CCN(CC)C(=O)c1c[nH]c2ccc(F)cc2c1=O,i,-0.61
Cc1nn(C)c(C)c1S(=O)(=O)N1CCCC(c2nc(CNC(=O)C(C)C)cs2)C1 (configuration not stated),i,-1.6
COc1ccc(OCC(=O)NCC2(N3CCOCC3)CCCCC2)cc1,i,-0.6
Cn1c(=O)c2nc(S(=O)(=O)CCC(=O)O)n(CCc3ccccc3)c2n(C)c1=O,i,0.74
CC(C)Cn1c(=O)c2nscc2n(CC(=O)NC2CCCC2)c1=O,i,1.3
Cc1nc(CN2C(=O)COc3ccc(S(=O)(=O)NC(C)C)cc32)no1,i,-0.33
CCn1c(CN(c2ccc(F)cc2)S(C)(=O)=O)nnc1SCc1nc2ccccc2c(=O)[nH]1,i,0.47
COc1ccc(S(=O)(=O)n2nc(C)c(S(=O)(=O)N3CCCC(C)C3)c2C)cc1 (configuration not stated),i,1.4
CCOC(=O)c1nc(Nc2ccc(F)c(Cl)c2)c2c(C)noc2n1,i,-1.3
COc1ccc(C(=O)NCCc2sc3nc(-c4ccc(C)cc4)nn3c2C)cc1OC,i,1.4
O=C(Nc1cccc2nsnc12)c1nc2ccccc2nc1N1CCCC1,i,0.34
CC[C@H]1OC(=O)[C@H](C)C(O[C@H]2C[C@@](C)(OC)[C@@H](O)[C@H](C)O2)[C@H](C)[C@@H](OC2O[C@H](C)C[C@H](N(C)C)[C@H]2O)[C@](C)(O)C[C@@H](C)CN(C)[C@H](C)[C@@H](O)[C@]1(C)O (some centres not stated),i,-3.5
COc1ccc(CCNC(=O)CSc2nc(N)c3c4c(sc3n2)CCC4)cc1OC,i,-0.4
Cc1ccccc1Nc1c(-c2ccc(N3CCOCC3)cc2)nc2c(C)cccn12,i,0.56
Cc1ccc(NC(=O)N2CCN3CCCCC3C2)cc1C (configuration not stated),i,-0.23
O=C(Nc1ccc(Br)cc1F)N1CCN(Cc2ccc3nccnc3c2)CC1,i,0.89
O=C(CCc1ccccc1)N1CCN(c2nc3ccccc3n(Cc3ccccc3)c2=O)CC1,i,0.4
CCOC(=O)c1c(S(=O)(=O)N2CCC(C(=O)Nc3ccc(F)cc3F)CC2)c(C)n(CC)c1C,i,-0.61
CCC(=O)N1c2ccccc2NC2=C(C(=O)CC(C)(C)C2)C1c1cccs1 (configuration not stated),i,-0.78
COc1ccc(Nc2cc(C)c3cc(NC(=O)c4ccccc4C)ccc3n2)cc1,i,-0.18
CCCCOc1ccc(S(=O)(=O)Nc2ccc(Nc3cc(N(C)C)nc(C)n3)cc2)cc1,i,0.65
CCOC(=O)COc1ccc(F)cc1C(=O)c1ccn2nc(-c3ccc(C)cc3)cc2n1,i,0.1
O=C(Cn1ncc(-c2ccccc2)nc1=O)Nc1ccc(F)c(Cl)c1,i,0.54

Further records follow.
Value order: Anaer choline gr, Anaer choline gr early
O=S1(=O)C[C@H](N2CCN(c3ccccc3F)CC2)[C@@H](S(=O)(=O)c2ccc(F)cc2)C1
→ i, 0.46
CC1CCCN(C(=O)C2CCN(c3nc4cccnc4s3)CC2)C1 (configuration not stated)
→ i, 1.2
Cc1ccc(CNc2nc3nc(C)c(CCC(=O)NC(C)C)c(=O)n3[nH]2)cc1
→ i, -0.19
Cn1nc(C(=O)N2CCC(c3ccccc3)C2)c2c1-c1ccccc1SC2 (configuration not stated)
→ i, 1.3
O=C(NC1CCCC1)C1=Cc2ccccc2OC1
→ i, -0.08
Cc1cccc(NC(=O)CN2CCN(c3cc(C(=O)O)c4cc(N)ccc4n3)CC2)c1
→ i, 0.62
O=C(NCCCn1c(-c2ccncc2)nc2cccnc21)Nc1ccc(Br)cc1
→ i, 0.17
COCC(C)NS(=O)(=O)c1c(C)[nH]c(=O)[nH]c1=O (configuration not stated)
→ i, 0.44
Cc1ccc(CN2CCc3[nH]c(=S)[nH]c(=O)c3C2)cc1
→ i, -0.98
O=C(NCCc1ccccc1)N1CCC(N2CCN(Cc3ccc(F)cc3)C(=O)C2=O)CC1
→ i, -0.6

Individual results from the results shown.
For Anaer choline gr early, Cc1ccc(CN2CCc3[nH]c(=S)[nH]c(=O)c3C2)cc1 has -0.98
For Anaer choline gr early, Cc1cccc(NC(=O)CN2CCN(c3cc(C(=O)O)c4cc(N)ccc4n3)CC2)c1 has 0.62

More records:
Value order: Anaer choline gr, Anaer choline gr early
CNC(=O)Cc1ccc(-n2c(=O)c3ccccc3n(CC(=O)NCCc3ccccc3)c2=O)cc1
→ i, 1
COc1cccc(Oc2ccnc(-c3cccc(C(=O)Nc4cccc(Br)c4)c3)n2)c1
→ i, 0.29
O=C(NCCCN1CCOCC1)c1ccc(CN2C(=O)CCn3nc(-c4ccc(Cl)cc4)cc32)cc1
→ i, -0.55
O=C(CN1C(=O)CCCc2ccccc21)NCCCN1CCC(N2CCCCC2)CC1
→ i, 1.1
CC(C)(C)NC(=O)c1cc(-c2ccncc2)n(-c2ccccc2)n1
→ i, -0.9
Cc1nn(C)c2nc(OCC(=O)c3c(C)n(C)c4ccccc34)cc(-c3ccccc3)c12
→ i, 0.97
O=C(NCC1CCCO1)c1cc(NS(=O)(=O)c2ccc(Cl)cc2)ccc1N1CCNCC1 (configuration not stated)
→ i, 0.25
CN(C)c1nc2ncn3c(=O)n(CC(=O)Nc4cccc(F)c4)nc3c2s1
→ i, 0.35
CNC(=O)C1CCCN(c2nc3ncn(CC(=O)N4CCc5ccccc5C4)c(=O)c3s2)C1 (configuration not stated)
→ i, 0.5
O=C(Cc1csc2ccccc12)N1CCN(C(=O)Nc2ccc(Br)cc2)CC1
→ i, -0.76

Retrieved by compound from the entries so far:
Value order: Anaer choline gr, Anaer choline gr early
O=C(NCC1CCCO1)c1cc(NS(=O)(=O)c2ccc(Cl)cc2)ccc1N1CCNCC1 (configuration not stated)
→ i, 0.25
COc1cccc(Oc2ccnc(-c3cccc(C(=O)Nc4cccc(Br)c4)c3)n2)c1
→ i, 0.29
Cc1nn(C)c2nc(OCC(=O)c3c(C)n(C)c4ccccc34)cc(-c3ccccc3)c12
→ i, 0.97
O=C(NCCCN1CCOCC1)c1ccc(CN2C(=O)CCn3nc(-c4ccc(Cl)cc4)cc32)cc1
→ i, -0.55

Further compounds follow.
Value order: Anaer choline gr, Anaer choline gr early
Cc1csc(N2N=C(c3ccc(F)cc3)CC2c2ccccc2F)n1 (configuration not stated)
→ i, 1.2
CNC(=O)N1c2ccccc2NC2=C(C(=O)CC(C)(C)C2)C1c1ccc(C)cc1 (configuration not stated)
→ i, -0.14
Cc1csc(-c2cc(S(=O)(=O)NC3CCCC3)cn2CC(=O)N2CCCCC2)n1
→ i, -0.06
COc1cccc(NC(=O)N2CCN(S(=O)(=O)c3cc4c(cc3Cl)NC(=O)C(C)O4)CC2)c1 (configuration not stated)
→ i, -0.41
Cn1c(SCc2ccc(Cl)cc2)nc2c(=O)[nH]cnc21
→ i, -1.6
Cc1ccc(S(=O)(=O)N2CCCC(c3nc(-c4ccccc4)no3)C2)cc1 (configuration not stated)
→ i, 2.1
Cc1noc2ncnc(NCc3ccc(F)cc3)c12
→ i, -0.09
Cc1ccc(-c2nn(CC(=O)N3CCN(c4ccccc4)CC3)c(=O)c3ccccc23)cc1
→ i, 0.19
Cc1ccccc1CNC(=O)C1(C)CCCN(C(=O)Nc2ccc(Br)cc2F)C1 (configuration not stated)
→ i, -1.5
COc1ccc(-c2noc(-c3cn(Cc4ccc(NC(=O)Nc5ccccc5)cc4)cn3)n2)cc1OC
→ i, -1.4
O=S(=O)(c1ccccc1Cl)N1CCC2(CC1)Nc1ccc(Cl)cc1-n1cccc12
→ i, -0.68
Cn1c(SCc2ccccc2F)nnc1-c1ccc2c(c1)OCCCO2
→ i, 0.51
COc1ccc(OCC(=O)Nc2cccc(OCc3cc(=O)n4cc(Cl)ccc4n3)c2)cc1
→ i, -0.33
COC(=O)c1cc(C(=O)Nc2cc(OC)ccc2OC)c(=O)[nH]c1C
→ i, -1.2
COCCNC(=O)c1ccc2c(=O)n(Cc3ccccc3)c(SCC(=O)c3ccccc3)nc2c1
→ i, 1.7
O=C(CC1CCN(C(=O)c2ccc3oc(C4CC4)nc3c2)CC1)N1CCN(c2ccccn2)CC1
→ i, -0.27
O=c1cc(CNc2ccc(F)cc2)nc2nc(NCc3ccccc3)[nH]n12
→ i, 1.7
COc1nc2c(c(C)nn2-c2ccccc2)c(C)c1CCC(=O)NCC1CCCO1 (configuration not stated)
→ i, 0.28
CCC(C)NC(=O)C1CCN(S(=O)(=O)c2ccc3c(c2)CCCC(=O)N3)CC1 (configuration not stated)
→ i, -0.22
CCCC(=O)NCCc1csc(-c2ccc(F)cc2)n1
→ i, -0.22
COc1cc(Nc2c(-c3ccc(C)cc3)c(=O)c2=O)cc(OC)c1
→ i, 0.48
CC(C)NCc1ccc(-c2ccc(C(C)O)cc2)o1 (configuration not stated)
→ i, -0.33
Cc1noc(C)c1C1CCCN1Cc1ccccn1 (configuration not stated)
→ i, 0.45
CN(CCc1noc(-c2ccccc2)n1)S(=O)(=O)c1cccc2nsnc12
→ i, -1.3
COc1ccc(OC)c(C2C3=C(CC(c4ccc(OC)c(OC)c4)CC3=O)Nc3onc(C)c32)c1 (configuration not stated)
→ i, 0.3

Source: PubChem BioAssay
